# Source: PubChem BioAssay (Southern Research Institute)
# Mtb H37Rv = Mycobacterium tuberculosis H37Rv growth inhibition, putative kinase inhibitor library, confirmatory dose response (AID 2842). M. tuberculosis H37Rv growth inhibition; higher % means a stronger effect; some inactives read as strong as hits. inhibition, % at 10 µg/mL, or IC90 in µg/mL where a hit was titrated. actives 5.2% (n = 24,000);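 active = confirmed in a dose series; about a fifth of its hits are not listed in these tables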;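 note: bacteria incubated one week before Alamar blue readout; 0% = bacteria only wells and 100% = bacteria with high antibiotic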
# * hit, by the source's call. Not all compounds are listed, so the mix of outcomes need not match the whole.
compound | Mtb H37Rv
COc1ccc2cc(CCNC(=O)C(C)Oc3ccccc3)c(=O)[nH]c2c1 (stereo not given) | -1%
O=C(Nc1nnc(-c2cccc([N+](=O)[O-])c2)s1)c1ccc(Cc2ccccc2)cc1 | 12%
COc1cccc(-c2nnc3n2N=C(c2cccc([N+](=O)[O-])c2)CS3)c1 | 4%
CCOC(=O)c1nn(-c2ccc(F)cc2)c(=O)c2c(NC(=O)c3ccco3)scc12 | -3%
C=CCn1c(SCC(O)CO)nc2c1c(=O)[nH]c(=O)n2C (stereo not given) | -14%
COc1ccc2sc(N(Cc3ccccn3)C(=O)/C=C/c3cccs3)nc2c1 | -2%
COc1ccc(OC)c2sc(NNC(=O)c3ccc(S(=O)(=O)N(C)C)cc3)nc12 | 17%
COc1cccc(C(=O)Oc2ccc3c4c(c(=O)oc3c2)CCCC4)c1 | 84%
Cc1cn2c3c(=O)n(CC(N)=O)c(=O)n(C)c3nc2n1-c1ccccc1Cl | -11%
CC1=C(C(=O)Nc2cccc(C)c2C)C(c2cccc(Cl)c2)NC(=O)N1 (stereo not given) | -1%
O=C(Cc1cccs1)Nc1c(C(=O)Nc2ccc(OC(F)(F)F)cc2)oc2ccccc12 | 7%
O=C(Nc1cccc(Cl)c1)c1oc2ccccc2c1NC(=O)C1CCCC1 | -5%
Cc1ccc(-c2csc(NC(=O)c3ccc(S(=O)(=O)N4CCCCC4)cc3)n2)cc1C | 9%
O=C(CS(=O)(=O)c1ccccc1)Nc1ccccc1-c1nc2ccccc2s1 | 3%
c1ccc(CCNc2nc(Nc3ccccc3)c3nccnc3n2)cc1 | 7%
O=C(/C=C/c1ccc([N+](=O)[O-])cc1)Nc1nnc(-c2ccco2)o1 | 4%
COc1cccc(-c2nnc(NC(=O)c3cccc(F)c3)o2)c1 | <0.2µg/mL*
Nc1ncnc(Nc2ccc(F)c(F)c2)c1[N+](=O)[O-] | -9%
O=C(Nc1c(C(=O)Nc2ccc([N+](=O)[O-])cc2)oc2ccccc12)c1cc2ccccc2o1 | 12%
Cc1cc(NC(=O)Cc2ccccc2)nc2c1c(=O)oc1ccccc12 | -1%

# (continued)
compound | Mtb H37Rv
CCOC(=O)c1cnc2ccc(OCC)cc2c1Nc1ccccc1OC | 6%
COC(=O)Cn1c(=NC(=O)CSC(C)=O)sc2cc(OC)ccc21 | -5%
CCOc1ccccc1NC(=O)c1oc2ccccc2c1NC(=O)c1ccc(OC)cc1OC | 3%
CCOc1ccc(C2C(C(N)=O)=C(C)Nc3ncnn32)cc1OCC (stereo not given) | -5%
CN(CCCC(=O)Nc1ccncc1)S(=O)(=O)c1ccc(Cl)cc1 | -4%
O=C(Cn1ccn(-c2cccc3ccccc23)c(=O)c1=O)Nc1ccccc1 | -3%
CCc1ccc(NC(=O)CSc2nc3c(c(=O)n2CC)SC(C)C3)cc1 (stereo not given) | 1%
CCCc1cc(=O)[nH]c2nnc(SCC(=O)NCc3ccc4c(c3)OCO4)n12 | 1%
CCOc1ccccc1C(=O)Nc1c2c(nn1-c1ccc(C)cc1C)CS(=O)C2 (stereo not given) | 19%
Cc1nnc2ccc(-c3cccc(NC(=O)c4cccc5ccccc45)c3)nn12 | -13%
COc1cccc(C(=O)NCCc2cc3cc(C)c(C)cc3[nH]c2=O)c1 | 4%
COCCN(CCOC)C(=O)CCn1c(=O)oc2ccccc21 | 2%
COc1ccccc1C(=O)Nc1sc2c(c1C(N)=O)CC(C)CC2 (stereo not given) | 3%
CCOC(=O)C1CCN(C(=O)c2c(C)oc3c2C(=O)c2ccccc2C3=O)CC1 | 4%
O=C1C=CC(=NS(=O)(=O)c2ccc(Cl)c([N+](=O)[O-])c2)C=C1 | -17%
CCCCOC(=O)CSCC(=O)Nc1nnc(C)s1 | 5%
Cn1cnnc1Sc1ncnc(N)c1[N+](=O)[O-] | 98%
CC(O)Cn1c(N2CCCC2)nc2c1c(=O)n(C)c(=O)n2C (stereo not given) | -6%
CC(C)(C)c1csc(NC(=O)c2ccc(S(=O)(=O)N3CCCCC3)cc2)n1 | 3%
CN(C)S(=O)(=O)c1ccc(C(=O)Nc2cc(Cl)cc(Cl)c2)cc1 | 11%

# Remaining list, next part.
compound | Mtb H37Rv
CCOC(=O)c1nn(-c2ccc(F)cc2)c(=O)c2c(NC(=O)c3cc(Cl)ccc3OC)scc12 | 7%
CCOc1ccccc1-n1c(C)c(C)n2c3c(=O)n(CC(N)=O)c(=O)n(C)c3nc12 | 10%
COc1cc(OC)cc(C(=O)Nc2cccc(-c3cn4nc(OC)ccc4n3)c2)c1 | -20%
COc1cc([N+](=O)[O-])ccc1NC(=O)C(C)N1C(=O)c2ccccc2S1(=O)=O (stereo not given) | -14%
O=C(/C=C/c1cccs1)Nc1ccc2c(c1)C(=O)NC2=O | 2%
Cc1cc(NS(=O)(=O)c2cc3c4c(c2)C(C)C(=O)N4CCC3)ccc1Br (stereo not given) | 8%
C=C(C)Cn1c(N(C)Cc2ccccc2)nc2c1c(=O)[nH]c(=O)n2C | -1%
CCCSc1nc2c(c(=O)[nH]1)C(c1cccs1)C1=C(CC(C)(C)CC1=O)N2 (stereo not given) | -2%
COc1ccc(N2CC(NC(=O)Nc3ncccc3C)CC2=O)cc1 (stereo not given) | -13%
COc1cc(C(=O)Nc2c(-c3ccccc3)c3cc(Br)ccc3[nH]c2=O)cc(OC)c1OC | 19%
COc1ccccc1OCC(=O)Nc1c(C(=O)Nc2ccc(Cl)cc2)oc2ccccc12 | -8%
O=C(NC1CC(=O)N(c2cccc(F)c2)C1)c1ccc(C(F)(F)F)cc1 (stereo not given) | -15%
C=CCn1c(SCCN2CCCC2)nc2c([nH]c3ccccc32)c1=O | 5%
CCn1c(SCC(=O)Nc2cc(C)ccc2C)nc2c(c1=O)SC(C)C2 (stereo not given) | 6%
Cc1cccc(NC(=O)CSc2nnc3[nH]c(=O)c(C)c(C)n23)c1 | -7%
Cc1ccc(C(CNC(=O)C2CCCC2)N2CCN(C)CC2)cc1 (stereo not given) | -11%
Cc1ccc(NS(=O)(=O)c2cc3c4c(c2)CCC(=O)N4CCC3)cc1F | 4%
Nn1c(SCC(=O)Nc2ccc([N+](=O)[O-])cc2)nnc1-c1ccncc1 | 1%
CCOc1ccccc1N1C(=O)CC(N(O)c2ccccc2)C1=O (stereo not given) | -14%
COCC(=O)Nc1c(C(=O)Nc2ccc(Cl)cc2)oc2ccccc12 | -2%

# Following part
compound | Mtb H37Rv
Cc1ccc(NC(=O)CSc2nc3c(c(=O)n2-c2ccc(F)cc2)SCC3)cc1 | 10%
COc1ccccc1NC(=O)Nc1c2ccccc2nc(=O)n1Cc1cccnc1 | 1%
COc1ccc(C(=O)NCC(=O)NNc2ncnc(N)c2[N+](=O)[O-])cc1OC | 4%
Cc1nc2sc(C(c3cccc(Cl)c3)N3CCOCC3)c(O)n2n1 (stereo not given) | 2%
COCCNC(=O)COc1cccc2c1CCNC2=O | -10%
COc1ccc(Cl)cc1C(=O)Nc1cc2c3c(c1)CCN3C(=O)CC2 | -5%
Cc1c(Cc2ccccc2)sc(NC(=O)C2CC2)c1C(N)=O | 8%
COc1ccc2sc(Nc3cc(C)cc(C)c3)nc2c1 | 12%
O=C(Nc1cc2c3c(c1)CCC(=O)N3CCC2)c1cccc(Cl)c1 | 27%
O=C(O)Cc1c(-c2ccccc2)c2cc(Cl)ccc2[nH]c1=O | -12%
CC(C)CCn1c(N(C)Cc2ccccc2)nc2c1c(=O)[nH]c(=O)n2C | 2%
COc1ccc(N2CCN(c3nc4c(c(=O)n(C)c(=O)n4C)n3CCSc3nnnn3-c3ccccc3)CC2)cc1 | -1%
COC(=O)c1cc(N/C=C(\C#N)c2nc(-c3ccc4c(c3)OCO4)cs2)cc(C(=O)OC)c1 | 0%
Cc1ccc(O)c(Nc2ncnc3ccc(Br)cc23)c1 | 19%
COc1ccc(Nc2cc(C)nc(-n3cc([N+](=O)[O-])cn3)n2)cc1Cl | -1%
O=C(Nc1nnc(-c2cc(Cl)ccc2Cl)o1)C1CC1 | 7.4µg/mL*
COc1ccccc1-n1ncc2c(=O)[nH]c(SC(C)c3ccccc3)nc21 (stereo not given) | 5%
O=C(Cc1cccs1)Oc1coc(CSc2ncccn2)cc1=O | -5%
CSc1ccc(CC(=O)Nc2nc3ccc4sc(C)nc4c3s2)cc1 | 84%
CCc1nnc(NC(=O)CSc2nc(C)nc3c2c(=O)n(C)c(=O)n3C)s1 | -7%

# New compounds follow:
compound,Mtb H37Rv
Nc1nc(SCC(=O)Nc2ccc(F)cc2F)[nH]c(=O)c1NC(=O)c1ccc(F)cc1,-12%
Cn1c(=NC(=O)CCOc2ccccc2)sc2cc(S(C)(=O)=O)ccc21,-3%
COc1cc(C(=O)Nc2nnc(-c3ccc(Cl)cc3)s2)cc(OC)c1OC,7%
COc1cccc(-n2c(=O)[nH]c3c(C(N)=O)nc(-c4ccccc4[N+](=O)[O-])nc32)c1,4%
CC(=O)c1ccc(NC(=O)CSc2ccnc3c2c(=O)n(C)c(=O)n3C)cc1,4%
Cc1cccc(-c2nnc(NC(=O)Cc3cccc4ccccc34)s2)c1,15%
CCOc1ccccc1NC(=O)c1cnc2n(c1=O)CCS2,-1%
Cc1cc(NC(=O)CN2C(=O)CC(c3ccco3)Sc3ccccc32)no1 (stereo not given),12%
CCOc1ccc(C(=O)NCCc2cc3ccc(OC)cc3[nH]c2=O)cc1OCC,1%
COc1cc2c3nnc(-c4ccc(Cl)cc4)c-3cn(Cc3ccc(C)cc3)c2cc1OC,6%

# Structural class, those above with fluorine
compound,Mtb H37Rv
CCOC(=O)c1nn(-c2ccc(F)cc2)c(=O)c2c(NC(=O)c3ccco3)scc12,-3%
O=C(Cc1cccs1)Nc1c(C(=O)Nc2ccc(OC(F)(F)F)cc2)oc2ccccc12,7%
COc1cccc(-c2nnc(NC(=O)c3cccc(F)c3)o2)c1,<0.2µg/mL*
Nc1ncnc(Nc2ccc(F)c(F)c2)c1[N+](=O)[O-],-9%
CCOC(=O)c1nn(-c2ccc(F)cc2)c(=O)c2c(NC(=O)c3cc(Cl)ccc3OC)scc12,7%
O=C(NC1CC(=O)N(c2cccc(F)c2)C1)c1ccc(C(F)(F)F)cc1 (stereo not given),-15%
Cc1ccc(NS(=O)(=O)c2cc3c4c(c2)CCC(=O)N4CCC3)cc1F,4%
Cc1ccc(NC(=O)CSc2nc3c(c(=O)n2-c2ccc(F)cc2)SCC3)cc1,10%
Nc1nc(SCC(=O)Nc2ccc(F)cc2F)[nH]c(=O)c1NC(=O)c1ccc(F)cc1,-12%

# Carrying on:
compound,Mtb H37Rv
Nc1nc(SCc2cccc(Cl)c2)[nH]c(=O)c1NC(=O)c1ccccc1F,-5%
COc1ccc(-c2nc(NC(=O)c3coc4ccccc4c3=O)sc2C)cc1,0%
Cc1cc(Br)ccc1N/C=C(/C#N)c1nc(-c2ccc(Cl)cc2Cl)cs1,2%
CN(C(=O)c1ccc(C(=O)c2ccccc2)cc1)c1nnc(C23CC4CC(CC(C4)C2)C3)s1,1%
Cc1ccc(C(=O)Nc2c(N)nc(SCC(=O)Nc3nc4ccccc4s3)[nH]c2=O)cc1,-7%
CCc1ccc2nc(Nc3nc4ccc(OC)cc4s3)sc2c1,70%
CCn1cc(C(=O)Nc2ccc3c(c2)OCO3)c2nn(-c3ccccc3)c(=O)c-2c1,-12%
CCOC(=O)CCC(=O)Nc1c(C(=O)Nc2ccc(F)c(Cl)c2)oc2ccccc12,0%
COc1ccc(C(=O)Nc2nnc(-c3ccc(S(C)(=O)=O)cc3)o2)cc1OC,-27%
CCc1nc(SCC(=O)Nc2cccc(F)c2)c2c(=O)n(C)c(=O)n(C)c2n1,9%

# 3 of the compounds above, as labelled records:
CCc1ccc2nc(Nc3nc4ccc(OC)cc4s3)sc2c1
  Mtb H37Rv: 70%
CCn1cc(C(=O)Nc2ccc3c(c2)OCO3)c2nn(-c3ccccc3)c(=O)c-2c1
  Mtb H37Rv: -12%
CCOC(=O)CCC(=O)Nc1c(C(=O)Nc2ccc(F)c(Cl)c2)oc2ccccc12
  Mtb H37Rv: 0%

# (further entries)
compound,Mtb H37Rv
N#Cc1ccc(C(=O)Nc2nc3c(cc4c5c(cccc53)CC4)s2)cc1,13%
CS(=O)(=O)c1ccc2nc(NC(=O)CC3CCS(=O)(=O)C3)sc2c1 (stereo not given),-9%
COc1ccc(C)cc1-n1c(SCC(=O)NCC2CCCO2)nc2c([nH]c3ccccc32)c1=O (stereo not given),0%
Cc1c(C(=O)Nc2cc(C)c3c(=O)oc4ccccc4c3n2)cccc1[N+](=O)[O-],3%
COc1ccc(-c2ccc(=O)n(CCNS(=O)(=O)c3ccc(C(C)=O)cc3)n2)cc1,1%
CC(=O)Sc1nc(-c2ccccc2)[nH]c1S(=O)(=O)c1ccc(C)cc1,6%
COc1ccc(-c2nnc3ccc(SCC(=O)Nc4ccc(F)cc4F)nn23)cc1,-4%
COc1ccc2cc(CCNC(=O)/C=C\c3ccccc3)c(=O)[nH]c2c1,0%
Cc1cn2c3c(=O)n(CCc4ccccc4)c(=O)n(C)c3nc2n1CCc1ccccc1,0%
O=C(Oc1coc(CSc2ncccn2)cc1=O)c1cc(Cl)ccc1Cl,-4%

# (next part)
compound,Mtb H37Rv
Cc1ccc(-c2nnc3ccc(SCC(=O)Nc4nc(C)cs4)nn23)cc1,-1%
Cc1ccc(C)c(NC(=O)Cn2cc(S(=O)(=O)c3ccc(C)c(C)c3)c(=O)c3cc(F)ccc32)c1,3%
O=C(CSc1ccc2nnc(-c3ccccc3)n2n1)N1CCc2ccccc21,-6%
COc1cc(C(=O)Nc2nnc(-c3cc(Cl)ccc3Cl)o2)cc(OC)c1OC,28µg/mL*
Cc1ccc(CNC(=O)Cc2cc(=O)[nH]c(=O)[nH]2)cc1,1%
O=C(COc1ccc(Cl)cc1)Nc1nnc(-c2ccncc2)o1,-7%
Cc1cc(OC(=O)CCC2CCCC2)c([N+](=O)[O-])c(=O)[nH]1,-2%
O=c1ccn2c(SCc3cccc(F)c3)nnc2[nH]1,-7%
COc1ccc(N=Cc2cc([N+](=O)[O-])ccc2O)c2ccccc12,-9%
CC1CCN(S(=O)(=O)c2ccc(C(=O)Nc3nc4c(ccc5ccccc54)s3)cc2)CC1,74%
O=C(CN1C(=O)CCC1=O)Nc1nnc(-c2ccco2)o1,-8%
COC(=O)c1ccc2c(c1)C(=O)/C(=C\c1ccc(OC)cc1)O2,-5%
